# Screening data deposited in PubChem by several laboratories.
# PABP FP inh: PABP poly(A) RNA binding inhibitors, primary screen, biochemical, fluorescence polarization, uHTS | inhibition, % at 35 µM | 290,000 tested, 1% active;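 active = 50% or more with normal probe brightness, or confirmed in later tests; inconclusive = above 50% with abnormal brightness, or retests that disagree; inactive = below 50% or failed in later tests; about a fifth of its hits are not listed in these tables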;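 also: calls also rest on retests at 20 µM and on dose response follow-up; controls were probe without protein and protein plus probe with vehicle; some compounds called inactive have numbers as strong as hits; many hits fall short of the cut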
# Target sequence (P11940 whole entry, looked up): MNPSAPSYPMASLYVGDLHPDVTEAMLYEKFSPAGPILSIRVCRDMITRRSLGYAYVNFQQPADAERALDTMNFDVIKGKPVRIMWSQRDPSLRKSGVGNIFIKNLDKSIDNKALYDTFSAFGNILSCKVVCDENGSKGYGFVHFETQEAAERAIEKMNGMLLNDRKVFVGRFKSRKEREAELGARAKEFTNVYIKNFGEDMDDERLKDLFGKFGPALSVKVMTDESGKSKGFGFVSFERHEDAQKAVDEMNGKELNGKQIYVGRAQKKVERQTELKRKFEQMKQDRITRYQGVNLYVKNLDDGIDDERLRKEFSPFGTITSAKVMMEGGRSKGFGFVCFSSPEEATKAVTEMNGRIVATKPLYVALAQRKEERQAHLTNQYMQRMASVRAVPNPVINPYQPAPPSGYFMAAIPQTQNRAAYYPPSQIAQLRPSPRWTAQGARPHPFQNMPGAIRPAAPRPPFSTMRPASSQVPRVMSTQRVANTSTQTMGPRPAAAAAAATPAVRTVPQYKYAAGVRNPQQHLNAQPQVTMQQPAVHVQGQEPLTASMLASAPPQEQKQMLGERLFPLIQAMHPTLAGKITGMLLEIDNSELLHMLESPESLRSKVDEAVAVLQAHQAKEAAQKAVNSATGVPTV
# CSC inhib: cancer stem cell viability inhibitors, primary screen, luminescence | inhibition, % at 7.5 µM | cancer stem cell-like cells viability | AID 2717, 2010 | 300,000 tested, 1.1% active;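 active = mean at 75% or more and at least half the replicates too; inconclusive = mean and replicates disagree; tested in HMLE shEcad cells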;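 also: 0% = median of negative and 100% = median of positive control wells; the first replicate is given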
# UUG fidelity: modulators of yeast start codon fidelity, primary screen, whole organism, S. cerevisiae, single point, plate reader. S. cerevisiae UUG-firefly luciferase reporter, luminescence/redox ratio. activity score, % at 18.7 µM. 350,000 tested, 0.13% active;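 active = replicate mean at a twofold rise or more, about +100% in these data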;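 also: firefly luciferase made from a UUG start codon reports start codon fidelity; reporter light over untreated wells divided by growth signal over untreated wells; some hits fall short of that in this replicate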
# eIF4H inh: human eIF4H binding inhibitors, primary screen, translation initiation inhibitor project, biochemical, uHTS, fluorescence polarization; AID 2012, 2009; eIF4H fluorescence polarization binding assay; 290,000 tested, 0.94% active; inhibition, % at 35 µM;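 active = 50% or more with normal probe brightness, or confirmed in later tests; inconclusive = above 50% with abnormal brightness, or retests that disagree; inactive = below 50% or failed in later tests; about a fifth of its hits are not listed in these tables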;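 also: calls also rest on retests at 20 µM and on dose response follow-up; 0% = protein and probe with vehicle and 100% = probe without protein; strong numbers were not always called active; many hits fall short of the cut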
# Rce1 inhib: yeast Rce1p protease inhibitors, primary screen, biochemical, fluorescence, cell-free homogeneous; 290,000 tested, 0.27% active; calls only; yeast membranes, quenched prenylated peptide cleavage fluorescence; CAAX prenyl protease 2 (Saccharomyces cerevisiae (strain ATCC 204508 / S288c)), Q03530;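 active = fall in fluorescence gain of 50% or more versus controls, with final raw signal at or below 3038400; inconclusive = same 50% fall but final raw signal above 3038400; inactive = fall in fluorescence gain under 50%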;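 also: plate controls were neutral control wells for no effect and wells lacking membranes for full effect; tested at 10 µM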
# HIV Env fusion: inhibitors of HIV-1 Env-driven cell-cell fusion, primary screen, HeLa-JRFL effector, CEM21 target cells, luciferase; AID 651610, 2012; inhibition, % at 12.3 µM; 360,000 tested, 1.1% active;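 active = mean replicate inhibition score of at least 50 and every replicate individually at or above 50; inconclusive = only one of the two criteria met; inactive = mean below 50 and not all replicates reaching 50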;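 also: 0% = plate neutral controls and 100% = maraviroc near 300 nM; one replicate is shown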
# MT1-MMP act inh: blockers of MT1-MMP proenzyme processing, primary screen, HT1080 RFP-PRO-GFP cells, GFP/RFP fluorescence. Matrix metalloproteinase-14 (Homo sapiens), P50281. GFP/RFP ratio fluorescence, overnight; percent of plate control window, DMSO zero. GFP/RFP ratio change, % at 20 µM. 360,000 tested, 0.061% active. AID 651647, 2012;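 active = GFP/RFP ratio change of at least 30% with cell ATP level not reduced by more than half and red fluorescence within 50% of control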; also: strong numbers were not always called active
#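 Assay system: HT1080 cells carrying an RFP-PRO-GFP reporter | Dosing: Single dose of 20 µM compound, 1% DMSO final | Incubation: Cells overnight before dosing, compound overnight, 37 °C, 5% CO2 | Evaluation: GFP/RFP fluorescence ratio | Control set: DMSO and RFP-L50D-GFP cell wells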
# eIF4H inh retest: recorded beside eIF4H inh, whose call it bears; inhibition, %; compound at 20 µM; confirmation average;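 mean of two retest wells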
# PABP FP inh retest: recorded beside PABP FP inh, whose call it bears; inhibition, %; compound at 20 µM; confirmation repeats;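 mean of two retest wells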
# MT1-MMP act inh RFP: also measured in MT1-MMP act inh; calls as there; RFP signal change, %; measured here: RFP expression control read;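 0 = vehicle wells; hits needed this value within 50% of zero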
# Starred values were filed as active, the others as inactive; i = inactive; ? = inconclusive; . = not tested or not shown; + = active, no number; & = joins results of further samples.
SMILES,PABP FP inh,CSC inhib,UUG fidelity,eIF4H inh,Rce1 inhib,HIV Env fusion,MT1-MMP act inh,MT1-MMP act inh RFP,others
Cc1ccc(/C=C2/C(=N)N3N=C(CC(=O)N4CCCC4)SC3=NC2=O)o1,14,15,-15,-11,i,-4,-3,5,
Cc1onc(-c2ccccc2)c1C(=O)Nc1cc(C(F)(F)F)ccc1N1CCOCC1,-2,57,0,-8,i,-77,-4,-14,
O=C(CNC(=O)c1ccccc1)NC1(C(=O)NC2CCCC2)CCCCC1,-1,-8,-16,-11,i,-28,5,6,
CC1=C(C(N)=O)C(c2ccccc2)n2nc(-c3ccncc3)nc2N1 (stereo unspecified),-7,-6,-11,-8,i,-14,2,2,
O=C(OCc1ccccc1)c1cc(S(=O)(=O)N2CCCCC2)ccc1N1CCOCC1,.,16,7,.,i,-2,-5,-12,
COc1ccc(-c2[nH]ncc2CN2CCN(C3CCCCC3)C(=O)C2)cc1F,-4,-12,4,-7,i,3,1,-2,
COC(=O)C1=C(NC(=O)C2CCCCC2)CCS1,-10,.,.,2,.,3,0,3,
COc1ccc2c(c1)-c1nc(/N=C/c3ccccc3O)sc1CC2,-10,8,-23,12,i,-4,4,10,
CC(=O)Nc1ccccc1NC(=O)c1ccccc1-c1ccccc1,8,-28,-8,-7,i,17,8,0,
C/C=C(\C)CN1CCC(Oc2ccc(C(=O)NCc3ccccn3)cc2)CC1,-5,1,-14,-6,i,-4,-4,3,
CCNC(=O)N1CCCC(C(=O)c2ccc(C(F)(F)F)cc2)C1 (stereo unspecified),11,4,-10,0,i,21,2,-5,
COc1cc2c(cc1OC)C(COc1ccc(F)cc1)N(C(C)=O)CC2 (stereo unspecified),8,-13,3,1,i,-11,3,2,
O=C(CN1C(=O)S/C(=C/c2ccncc2)C1=O)Nc1ccccc1,2,9,-9,-6,i,15,0,-12,
Cc1ccc(C)n1-n1c(C)nc2sc3c(c2c1=O)CCCCC3,-4,.,1,-5,i,.,-2,-3,
Cc1ccc(N(C(=O)CNC(=O)c2ccco2)C(C(=O)NC2CCCCC2)c2cccnc2)c(C)c1 (stereo unspecified),2,-16,-15,-9,i,21,2,2,
COCCCNC(=O)c1oc2ccc(S(=O)(=O)N3CCOCC3)cc2c1C,9,-12,-5,0,i,12,4,5,
COc1ccc(N2CCN(C(CNC(=O)C3CCCCC3)c3cccnc3)CC2)cc1 (stereo unspecified),0,5,-3,-4,i,.,1,-2,
Cc1ccc(C(=O)NC(C(=O)Nc2cccc(S(N)(=O)=O)c2)C(C)C)cc1 (stereo unspecified),6,-11,-15,-4,i,1,-1,2,
S=C(Nc1cccnc1)Nc1ccccc1Br,6,4,-14,-13,i,3,8,1,
O=C(Nc1nc(-c2ccc3c(c2)OCO3)cs1)c1ccncc1,1,17,-14,-7,i,71*,6,-20,
CN(Cc1ccon1)C(=O)CCc1nnc(CCCCc2ccccc2)o1,-1,2,-38,-3,i,-4,-7,2,
CCCc1cc(=O)oc2cc(C)cc(OCC(=O)NCCCn3ccnc3)c12,4,28,-16,-8,i,3,-1,0,
COc1cccc(NC(=O)Nc2cccs2)c1,4,1,.,40,i,.,0,0,
CCCc1c(C(=O)N/N=C/c2ccc(OCc3ccccc3)cc2)nnn1-c1nonc1N,.,.,-7,.,.,35,3,1,
CC(=O)Nc1ccc(C#Cc2ccc(NC(C)=O)cc2)cc1,0,32,-8,2,i,.,7,3,
Cc1n[nH]c(=O)c2c(NC(=O)CSc3ccccc3F)oc(C)c12,.,10,-5,.,i,16,2,-4,
CCCc1nnc(NC(=O)CCC(=O)N2CCCCC2CC)s1 (stereo unspecified),11,-19,-12,-5,i,.,2,1,
Cc1cc(C)nc(SCc2cc(=O)c(OC(=O)c3ccc(S(=O)(=O)N4CCCC4)cc3)co2)n1,9,5,.,6,i,-2,4,8,
CCOc1ccccc1NC(=O)c1cc2ccccc2oc1=O,-10,-16,-3,-4,i,-5,1,1,
O=C(c1ccc(N2CCCCC2)c([N+](=O)[O-])c1)N(c1ccccn1)c1ccccn1,5,-3,-10,17,i,12,5,5,
CCOc1ccc(CC(=O)N2N=C(C)CC2(O)C(F)(F)F)cc1 (stereo unspecified),33,11,.,-3,i,18,1,5,
O=C(CSc1nc2ccccc2c(=O)n1-c1ccccc1)N1CCc2ccccc2C1,-5,68,12,-5,i,.,1,-11,
Cc1cccc(C(=O)N(NC(=O)Oc2ccccc2)C(C)(C)C)c1,6,-9,-6,7,i,13,6,1,
COCCn1c(CN2CC(C)CC(C)C2)nc2c1c(=O)n(C)c(=O)n2C (stereo unspecified),-3,-6,-12,-1,i,-53,7,7,
CCN(CC)CCCNC(=O)CCc1c(C)n(CC)c2cc(-c3ccccc3OC)nn2c1=O,1,-8,-2,1,+,-19,2,3,
CCOc1ccccc1CN1C(=O)C2(OCCO2)c2ccccc21,-4,-24,14,-16,i,0,2,-5,
COc1ccc(S(=O)(=O)N2CCc3ccccc32)cc1C(=O)OCc1nnc(-c2ccccc2)o1,-2,.,-10,-13,i,.,-1,3,
COc1ccccc1CNc1ccc([N+](=O)[O-])cc1C,4,8,.,-8,i,11,-1,-2,
CC1(C(=O)NS(=O)(=O)c2ccc(C#N)cc2)CCN1C(=O)C1(c2ccccc2)CC1 (stereo unspecified),.,.,9,.,.,-1,-1,5,
CCC1=Nc2cc(C(=O)NCc3ccco3)ccc2Sc2ccccc21,-6,49,.,9,i,-4,-8,-12,
CCOC(=O)c1ccc(NC(=O)CNS(=O)(=O)c2ccccc2)cc1,31,1,-2,-1,i,.,-1,-4,
Cc1ccc(NC(=O)CCOc2ccccc2)cc1,10,-6,-13,-1,i,-44,1,2,
CCc1ccc(N=C2NC(=O)CS2)cc1,1,-12,-11,-5,i,-5,-4,0,
COc1ccc(CCNC(=O)CSc2nc(=O)n3cc(C)ccc3n2)cc1OC,.,-1,-12,.,i,.,0,2,
CC(=O)O[C@H]1C[C@@]2(C)[C@@H](C[C@@H](O)[C@H]3[C@@]4(C)CC[C@@H](O)[C@@H](C)[C@@H]4CC[C@@]32C)/C1=C(\CCC=C(C)C)C(=O)O,.,5&-8,-19&35,.,i,13,-1&6,-2&2,

# The closing two entries of the section before open the next one.
SMILES,PABP FP inh,CSC inhib,UUG fidelity,eIF4H inh,Rce1 inhib,HIV Env fusion,MT1-MMP act inh,MT1-MMP act inh RFP,others
COc1ccc(CCNC(=O)CSc2nc(=O)n3cc(C)ccc3n2)cc1OC,.,-1,-12,.,i,.,0,2,
CC(=O)O[C@H]1C[C@@]2(C)[C@@H](C[C@@H](O)[C@H]3[C@@]4(C)CC[C@@H](O)[C@@H](C)[C@@H]4CC[C@@]32C)/C1=C(\CCC=C(C)C)C(=O)O,.,5&-8,-19&35,.,i,13,-1&6,-2&2,
CC(C)c1cc(C(=O)O)c2cnn(C(C)C)c2n1,6,-3,-3,-4,i,12,-1,1,
COc1ccc(N2CCN(C(=O)c3ccc4c(c3)NC(=O)C(CSCc3ccc(C)cc3)N4)CC2)cc1 (stereo unspecified),-6,.,.,-13,i,.,.,.,
CCOc1ccc(-n2c(=O)c3sccc3n(CC(=O)NCCc3ccc(OC)c(OC)c3)c2=O)cc1,-1,-8,-16,1,i,-5,-1,1,
O=C(COc1ccc(C(=O)c2ccccc2)cc1)NCC(=O)Nc1ccccc1Br,14,41,.,-5,i,14,-1,0,
COCCSc1nnc(NC(=O)Cc2ccc(OC)c(OC)c2)s1,-2,3,-28,-5,i,-12,9,0,
CCOc1ccc(N(CC(=O)N2CCN(c3ccccc3)CC2)S(=O)(=O)c2c(C)noc2C)cc1,6,-3,-8,-9,i,?,3,-2,
N#Cc1ccc(S(=O)(=O)N2CCN(c3ncccn3)CC2)cc1,6,-1,.,1,i,-5,3,1,
Cc1ccccc1NC(=O)CC(=O)Nc1ccccc1C,-13,-12,2,6,i,-4,-5,1,
Cc1cc(Br)cc2c1N(C)C(=O)C2(c1ccc(O)cc1)c1ccc(O)cc1,.,21,-1,.,i,13,7,-8,
COc1cc(C(=O)Oc2ccc(/C=N/NC(=O)c3ccncc3)cc2)cc(OC)c1OC,-14,-22,-5,-11,i,-16,6,-2,
CCc1ccn2cc(-c3ccc4c(c3)OCO4)nc2c1,-7,78*,-86,4,i,16,11,-2,
Cc1ccc(C)c(N2CCN(CCCNC(=O)Cn3c(=O)c4cccn4c4cccnc43)CC2)c1,-1,13,-12,8,i,4,1,3,
CC1CN(C(=O)COC(=O)c2cc(S(N)(=O)=O)c(Cl)cc2Cl)CC(C)O1 (stereo unspecified),8,.,-7,-14,i,-1,-4,4,
O=C(COC(=O)Cc1n[nH]c(=O)c2ccccc12)NNC(=O)c1ccc(Br)cc1,.,-10,-6,.,.,.,9,4,
COc1cc(C)c(CN2CCC(Cc3ccccc3)CC2)cc1C,-7,-18,-15,-3,i,-1,0,0,
Cc1ccc(-c2nnc(SCC(=O)O)n2N)cc1,16,-10,-10,5,i,-26,-3,2,
COCCn1c(COc2ccc(C)cc2)nc2ccccc21,4,-7,.,-8,i,.,-1,-3,
Cc1cc2n(c(=O)c1C#N)CCCN2c1ccccc1,0,-12,-6,8,i,-21,-5,3,
COc1ccc(NC(=O)CN2C(=O)NC(c3ccccc3)(c3ccccc3)C2=O)cc1OC,9,-6,7,12,i,-1,0,3,
CCC(=O)OCCNc1cc(Sc2nccn2C)c2nonc2c1[N+](=O)[O-],-5,25,.,1,i,-184,5,2,
C/C=C(/C)C(=O)OC1Cc2c(ccc3ccc(=O)oc23)OC1(C)C (stereo unspecified),6,-16,11,-4,i,.,-4,-5,
O=C(O)c1ccccc1CSc1nc2ccccc2[nH]1,-4,-2,-20,-3,i,-13,0,2,
CCCc1ccc2oc(C(=O)NCCCN3CCOCC3)c(C)c2c1,0,-3,2,-7,i,-33,0,-1,
CCN(CC)CCNc1ccc(CO)c2sc3ccccc3c(=O)c12,-5,32,10,81,i,-30,-1,5,eIF4H inh retest=-3;PABP FP inh retest=-2
CCOC(=O)C1C(c2cccc(F)c2)NC(=S)NC1(O)C(F)(F)F (stereo unspecified),-6,-3,-19,15,i,18,2,1,
Cc1ccccc1S(=O)(=O)N(C)C[C@@H]1OCc2cnnn2CCCC(=O)N([C@H](C)CO)C[C@@H]1C,.,.,-8,.,.,6,1,6,
CCOC(=O)Cn1cc(-c2ccccc2)nn1,3,-6,.,1,i,.,3,4,
C[C@@H]1CN([C@@H](C)CO)S(=O)(=O)c2ccc(Br)cc2O[C@@H]1CN(C)C(=O)c1ccncc1,.,.,-13&-11,.,.,3,1,5,
Cc1ccccc1C(=O)Nc1cccc(C(=O)N/N=C/c2ccccn2)c1,5,5,-11,2,i,3,1,-2,
N=C1/C(=C/c2ccc(-c3cccc(C(=O)O)c3)o2)C(=O)N=C2SC(CC(=O)N3CCOCC3)=NN12,58*,-4,-12,62*,i,-13,-24,-3,
CCOC(=O)c1c(NC(=O)CC2SC(N)=NC2=O)sc2c1CCCC2 (stereo unspecified),6,-6,-17,-6,i,.,3,0,
NNC(=S)Nc1cccc(Cl)c1,1,-14,-11,-10,i,9,-1,4,
